Vaccinia inh = blocks a specific stage of Vaccinia orthopoxvirus infection | Vaccinia-infected cells, mCherry/Venus stage reporter fluorescence; active compounds read low; some inactives read as strong as hits | activity change (mCherry), % (test concentration not listed) | actives 0.01% (n = 89,000) | AID 1053133;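 active = mCherry past -33% and 40 or more points under the early reporter, replicates agreeing; inconclusive = past -33% without that gap or agreement; tested in A549 cells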;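 note: scaled between vehicle wells and reference inhibitor wells; 23 nL library stock went into each well; one replicate is shown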
Vaccinia inh Venus = second read-out of Vaccinia inh, no call of its own (marks repeat the call); activity change (Venus), %; measured here: Venus reporter, other viral stage;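 negative = less Venus signal; first of two replicates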
The depositor's hits bear a star; u = inconclusive; x = no result given; & = joins results of further samples. Only part of the results is shown, so the mix of outcomes need not match the whole.

N#C[C@@H]1[C@H](c2ccc(C3=CCCC3)cc2)[C@H](CO)N1S(=O)(=O)c1ccccc1
  Vaccinia inh = 7 | Vaccinia inh Venus = 4
Cc1noc(C)c1S(=O)(=O)N(C)C[C@@H]1OCCCC[C@H](C)Oc2ccc(NC(=O)NC3CCCCC3)cc2C(=O)N([C@@H](C)CO)C[C@H]1C
  Vaccinia inh = -10 | Vaccinia inh Venus = -6
CO[C@@H]1CN(C)C(=O)c2cc(NC(=O)C3CCCC3)ccc2OC[C@H](C)N(CC2CC2)C[C@H]1C
  Vaccinia inh = 5 | Vaccinia inh Venus = 0
CNC[C@@H]1Oc2c(NC(=O)NC(C)C)cccc2C(=O)N([C@H](C)CO)C[C@@H]1C
  Vaccinia inh = 13 | Vaccinia inh Venus = 17
CCCNC(=O)N(C)C[C@H]1Oc2cc(Br)ccc2S(=O)(=O)N([C@@H](C)CO)C[C@@H]1C
  Vaccinia inh = 15&8 | Vaccinia inh Venus = 14&-1
CCCC#Cc1ccc([C@@H]2[C@H](C#N)N(C(=O)CN3CCOCC3)[C@H]2CO)cc1
  Vaccinia inh = 27 | Vaccinia inh Venus = 8
C[C@@H]1CCCCO[C@H](CN(C)S(=O)(=O)c2ccc(Cl)cc2)[C@@H](C)CN([C@H](C)CO)C(=O)c2cc(NC(=O)Nc3ccc(F)cc3)ccc2O1
  Vaccinia inh = 15 | Vaccinia inh Venus = 13
CCCN(C)C[C@H]1OCCCC[C@H](C)Oc2ccc(NC(=O)CCC(F)(F)F)cc2C(=O)N([C@H](C)CO)C[C@H]1C
  Vaccinia inh = 12 | Vaccinia inh Venus = 9
Cc1cccc(CN(C)C[C@@H]2Oc3ncc(-c4cccc(F)c4)cc3C(=O)N([C@H](C)CO)C[C@@H]2C)c1
  Vaccinia inh = u | Vaccinia inh Venus = x
C[C@H]1CCCCO[C@@H](CN(C)C(=O)CCC(F)(F)F)[C@@H](C)CN([C@@H](C)CO)C(=O)c2cc(NC(=O)c3ccccc3)ccc2O1
  Vaccinia inh = u | Vaccinia inh Venus = x
CCCC#Cc1cnc2c(c1)C(=O)N([C@@H](C)CO)C[C@@H](C)[C@@H](CN(C)C(=O)Nc1ccccc1F)O2
  Vaccinia inh = -10 | Vaccinia inh Venus = -13
CNC[C@@H]1Oc2c(NS(=O)(=O)c3ccc(Cl)cc3)cccc2C(=O)N([C@H](C)CO)C[C@H]1C
  Vaccinia inh = 2 | Vaccinia inh Venus = -7
C[C@@H]1CN([C@H](C)CO)C(=O)c2cc(C3=CCCCC3)cnc2O[C@@H]1CN(C)C(=O)c1ccncc1
  Vaccinia inh = 5 | Vaccinia inh Venus = -1
CN(C[C@H]1N[C@@H](CO)[C@H]1c1ccc(-c2ccc(F)cc2)cc1)C(=O)C1CCC1
  Vaccinia inh = u | Vaccinia inh Venus = x
C[C@H]1CN([C@@H](C)CO)C(=O)c2cccc(NC(=O)c3ccc(-c4nccs4)cc3)c2O[C@@H]1CN(C)Cc1ccc(C(F)(F)F)cc1
  Vaccinia inh = -19 | Vaccinia inh Venus = -21

Compound profiles (already shown). Values in the order: Vaccinia inh, Vaccinia inh Venus
CCCC#Cc1cnc2c(c1)C(=O)N([C@@H](C)CO)C[C@@H](C)[C@@H](CN(C)C(=O)Nc1ccccc1F)O2 reads -10, -13
N#C[C@@H]1[C@H](c2ccc(C3=CCCC3)cc2)[C@H](CO)N1S(=O)(=O)c1ccccc1 reads 7, 4
CCCNC(=O)N(C)C[C@H]1Oc2cc(Br)ccc2S(=O)(=O)N([C@@H](C)CO)C[C@@H]1C reads 15&8, 14&-1
C[C@@H]1CN([C@H](C)CO)C(=O)c2cc(C3=CCCCC3)cnc2O[C@@H]1CN(C)C(=O)c1ccncc1 reads 5, -1
CN(C[C@H]1N[C@@H](CO)[C@H]1c1ccc(-c2ccc(F)cc2)cc1)C(=O)C1CCC1 reads u, x

Next part.
Cc1noc(C)c1S(=O)(=O)Nc1ccc2c(c1)C(=O)N([C@@H](C)CO)C[C@@H](C)[C@H](CN(C)Cc1ccncc1)OCCCC[C@H](C)O2
  Vaccinia inh = 14 | Vaccinia inh Venus = 13
O=C(C[C@H]1C=C[C@H](NC(=O)Nc2ccc3c(c2)OCO3)[C@H](CO)O1)NCc1ccccc1
  Vaccinia inh = -6 | Vaccinia inh Venus = 6
C[C@H](CO)N1C[C@H](C)[C@H](CN(C)S(C)(=O)=O)Oc2ccc(NC(=O)NC3CCCCC3)cc2C1=O
  Vaccinia inh = -1 | Vaccinia inh Venus = 4
C[C@@H]1CCCCO[C@@H](CN(C)C(=O)Nc2ccc3c(c2)OCO3)[C@H](C)CN([C@@H](C)CO)C(=O)c2cc(NC(=O)Nc3ccc(C(F)(F)F)cc3)ccc2O1
  Vaccinia inh = -15 | Vaccinia inh Venus = -6
CC(=O)N[C@@H]1CC[C@@H](CC(=O)NCC2CCCCC2)O[C@H]1CO
  Vaccinia inh = -2 | Vaccinia inh Venus = 7
C[C@H]1CN([C@@H](C)CO)S(=O)(=O)c2ccc(-c3cccnc3)cc2O[C@H]1CN(C)Cc1ccncc1
  Vaccinia inh = 15 | Vaccinia inh Venus = 1
CCC(=O)Nc1ccc2c(c1)OC[C@@H](C)N(C(=O)c1ccncc1)C[C@H](C)[C@@H](OC)CN(C)C2=O
  Vaccinia inh = 3 | Vaccinia inh Venus = -1
C[C@H](CO)N1C[C@H](C)[C@H](CN(C)Cc2ccc(Cl)c(Cl)c2)OCc2cnnn2CCCC1=O
  Vaccinia inh = u | Vaccinia inh Venus = x
Cc1cccc(-c2ccc(C3[C@H]4CNC[C@@H]3N4S(=O)(=O)c3ccccc3F)cc2)c1 (stereo partly specified)
  Vaccinia inh = 12&10 | Vaccinia inh Venus = -2&10
COc1cccc(S(=O)(=O)N2[C@@H]3CNC[C@H]2C3c2ccc(-c3ccccc3OC)cc2)c1 (stereo partly specified)
  Vaccinia inh = -1&-1 | Vaccinia inh Venus = 7&-11
C[C@@H]1CN([C@H](C)CO)C(=O)c2cc(C#CCc3ccccc3)cnc2O[C@@H]1CN(C)C(=O)C1CCCCC1
  Vaccinia inh = -10 | Vaccinia inh Venus = -5
C[C@H](CO)N1C[C@H](C)[C@@H](CN(C)C(=O)Nc2ccc(-c3ccccc3)cc2)OCc2ccccc2-c2c(n(C)c3ccccc23)C1=O
  Vaccinia inh = u | Vaccinia inh Venus = x
COc1cccc(S(=O)(=O)N(C)C[C@H]2Oc3ncc(C#CCC(C)C)cc3C(=O)N([C@@H](C)CO)C[C@H]2C)c1
  Vaccinia inh = -17 | Vaccinia inh Venus = -13
O=C(C[C@@H]1CC[C@H]2[C@@H](COC[C@@H](O)CN2Cc2cccc(F)c2)O1)NCCc1ccncc1
  Vaccinia inh = -2 | Vaccinia inh Venus = -4
COc1ccc(S(=O)(=O)Nc2ccc3c(c2)C(=O)N([C@@H](C)CO)C[C@@H](C)[C@@H](CN(C)C(=O)c2ccccc2)OCCCC[C@@H](C)O3)cc1
  Vaccinia inh = -15 | Vaccinia inh Venus = -2

3 of the compounds above, with tabs:
Molecule	Vaccinia inh	Vaccinia inh Venus
Cc1noc(C)c1S(=O)(=O)Nc1ccc2c(c1)C(=O)N([C@@H](C)CO)C[C@@H](C)[C@H](CN(C)Cc1ccncc1)OCCCC[C@H](C)O2	14	13
O=C(C[C@H]1C=C[C@H](NC(=O)Nc2ccc3c(c2)OCO3)[C@H](CO)O1)NCc1ccccc1	-6	6
C[C@H](CO)N1C[C@H](C)[C@H](CN(C)S(C)(=O)=O)Oc2ccc(NC(=O)NC3CCCCC3)cc2C1=O	-1	4

Random excerpt: 2 records from the list
COc1cccc(S(=O)(=O)N2[C@@H]3CNC[C@H]2C3c2ccc(-c3ccccc3OC)cc2)c1 (stereo partly specified)
  Vaccinia inh = -1&-1 | Vaccinia inh Venus = 7&-11
CCCNC(=O)N(C)C[C@H]1Oc2cc(Br)ccc2S(=O)(=O)N([C@@H](C)CO)C[C@@H]1C
  Vaccinia inh = 15&8 | Vaccinia inh Venus = 14&-1

Next entries.
CCS(=O)(=O)N1CCCCN2[C@H](CO)[C@@H](c3ccc(-c4ccccc4F)cc3)[C@@H]2C1
  Vaccinia inh = -5 | Vaccinia inh Venus = 8
CC(C)C#Cc1ccc2c(c1)O[C@H](CN(C)C(=O)Cc1ccccn1)[C@H](C)CN([C@H](C)CO)S2(=O)=O
  Vaccinia inh = -4 | Vaccinia inh Venus = -10
COCC(=O)N1CC(=O)N2[C@H](C1)[C@@H](c1ccc(C#CC(C)C)cc1)[C@@H]2CO
  Vaccinia inh = 4 | Vaccinia inh Venus = -1
C[C@@H]1CN([C@H](C)CO)C(=O)c2c(c3ccccc3n2C)-c2ccccc2CO[C@H]1CN(C)C(=O)C1CC1
  Vaccinia inh = 10 | Vaccinia inh Venus = 0
Cc1ccccc1-c1ccc(C2[C@H]3CNC[C@@H]2N3S(=O)(=O)c2ccc(Cl)cc2)cc1 (stereo partly specified)
  Vaccinia inh = 8 | Vaccinia inh Venus = 21
O=C(Nc1ccc2c(c1)[C@H]1C[C@@H](CC(=O)N3CCOCC3)O[C@@H](CO)[C@H]1O2)NC1CCCCC1
  Vaccinia inh = 16 | Vaccinia inh Venus = 14
C[C@@H]1CN([C@H](C)CO)C(=O)c2cc(NC(=O)Nc3ccccc3)ccc2O[C@H]1CN(C)C(=O)Nc1cccc2ccccc12
  Vaccinia inh = 14 | Vaccinia inh Venus = 11
CC(=O)N(C)C[C@H]1Oc2ncc(C#CCc3ccccc3)cc2C(=O)N([C@@H](C)CO)C[C@H]1C
  Vaccinia inh = 16 | Vaccinia inh Venus = 8
Cc1noc(C)c1NC(=O)NCC[C@H]1CC[C@H](NC(=O)c2ccc(F)cc2)[C@@H](CO)O1
  Vaccinia inh = 20 | Vaccinia inh Venus = 5
O=C(Nc1ccc2c(c1)[C@@H]1C[C@@H](CC(=O)N3CCc4ccccc4C3)O[C@H](CO)[C@@H]1O2)C1CCC1
  Vaccinia inh = 12 | Vaccinia inh Venus = 11
CNC[C@@H]1OCCCC[C@@H](C)Oc2ccc(NC(=O)c3ccncc3)cc2C(=O)N([C@H](C)CO)C[C@@H]1C
  Vaccinia inh = -1 | Vaccinia inh Venus = -6
C[C@H]1CN([C@@H](C)CO)C(=O)c2cccc(NS(=O)(=O)c3ccc(F)cc3)c2O[C@H]1CN(C)C(=O)Nc1ccc(F)cc1
  Vaccinia inh = 9 | Vaccinia inh Venus = 7
Cc1ccccc1S(=O)(=O)NCC[C@H]1CC[C@@H](NC(=O)C2CCCC2)[C@@H](CO)O1
  Vaccinia inh = -15 | Vaccinia inh Venus = 7
O=C(C[C@@H]1CC[C@@H]2[C@H](COC[C@H](O)CN2CC2CCCCC2)O1)NCc1ccc(Cl)cc1
  Vaccinia inh = u | Vaccinia inh Venus = x
CC(C)C#Cc1ccc([C@@H]2[C@H]3CN(C(=O)c4ccc5c(c4)OCO5)CC(=O)N3[C@H]2CO)cc1
  Vaccinia inh = -9 | Vaccinia inh Venus = -9

Following part.
Below each compound – Vaccinia inh	Vaccinia inh Venus
- C[C@@H]1CCCCO[C@@H](CN(C)C(=O)c2ccncc2)[C@@H](C)CN([C@@H](C)CO)C(=O)c2cc(NS(=O)(=O)c3ccc(Cl)cc3)ccc2O1
    16	-7
- C[C@@H]1CN([C@@H](C)CO)C(=O)c2cc(NC(=O)Cc3ccccc3)ccc2O[C@@H]1CN(C)S(=O)(=O)c1ccc(Cl)cc1
    -18	-5
- C/C=C/c1ccc([C@H]2[C@H](CO)N3C(=O)CN(C(=O)Nc4cccc(OC)c4)C[C@@H]23)cc1
    -19	-26
- COc1ccccc1C#Cc1cnc2c(c1)C(=O)N([C@@H](C)CO)C[C@@H](C)[C@@H](CN(C)C(=O)CN(C)C)O2
    -5	-1
- C[C@@H]1CN([C@H](C)CO)C(=O)c2cccc(NS(=O)(=O)c3ccccc3)c2O[C@@H]1CN(C)S(=O)(=O)c1cn(C)cn1
    5	-9
